CBX7 inh: inhibitors of human CBX7 binding to H3K27me3 peptide. AlphaScreen His6-CBX7 / biotin-H3K27me3 peptide binding; active compounds read low. normalised signal (fraction of DMSO) (concentration not given with the values). 1.1% of 66,000 active. AID 1224903; in the data active means normalised signal below about 0.5;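 further: 100 nL library stock added to about 20 µL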
Target sequence (O95931 whole entry, looked up): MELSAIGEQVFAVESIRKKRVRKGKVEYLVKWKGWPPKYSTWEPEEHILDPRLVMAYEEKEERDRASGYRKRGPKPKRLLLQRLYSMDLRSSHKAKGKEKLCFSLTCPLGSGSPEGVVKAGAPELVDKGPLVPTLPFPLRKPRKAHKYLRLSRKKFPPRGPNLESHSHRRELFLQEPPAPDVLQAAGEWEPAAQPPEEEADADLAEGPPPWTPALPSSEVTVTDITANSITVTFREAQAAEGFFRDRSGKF
CBX7 inh z-score: recorded beside CBX7 inh, whose call it bears; z-score; measured here: z-score of CBX7 signal; some inactives read as strong as hits; reference of the scale not given here;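 same signal on another scale; lower means less binding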
Active calls of the source: *; & = joins results of further samples. These rows are one share of the data; the hit share may differ from the screen's.

SMILES	CBX7 inh	CBX7 inh z-score
CCC(=O)NCCCc1nc2ccccc2n1Cc1ccccc1F	1.19	1.96
CCOc1ccc(-n2ccnc2SCC(=O)Nc2nc3ccc(C)cc3s2)cc1	1.03	0.0401
CS(=O)(=O)c1ccc2nc(NC(=O)Cc3ccc(F)cc3)sc2c1	0.945	-0.634
Cc1ccc(C)c(Cn2c(CCNC(=O)Cc3ccccc3)nc3ccccc32)c1	1.05	0.368
CN(C1CCCC1)C1CCN(c2ccc3nncn3n2)CC1	0.972	-0.776
Cc1noc(C)c1S(=O)(=O)N1CCCC(C(=O)Nc2cccc(Cl)c2C)C1 (stereo not drawn)	1.15	2.37
Cc1ccc2c(c1)N(CCC(=O)NC1CC1)C(=O)CO2	1.06	0.86
Cc1ccc(S(=O)(=O)NCc2nc3ccccc3[nH]2)cc1	0.983	-0.242
Cc1nc2sc(C(c3cccs3)N3CCCC(C)C3)c(O)n2n1 (stereo not drawn)	1.03	1.59
COCCNC(=O)c1cc2n(n1)C(C(F)(F)F)CC(c1ccc(Cl)cc1)N2 (stereo not drawn)	0.967	-0.635
CCOC(=O)Nc1ccc2c(c1)N(C(=O)CCN1CCOCC1)c1ccccc1CC2	1.04	0.605
CCC(C(=O)NCCCN(CC)Cc1ccccc1)n1ncc2ccccc21 (stereo not drawn)	0.99	-0.284
Cc1ccc(S(=O)(=O)c2cn(CC(=O)Nc3ccc(F)cc3)c3ccc(F)cc3c2=O)cc1	0.817	-2.63
Cc1ccc(NC(=O)c2cc(-c3cccc(O)c3)on2)cc1C	1.11	3.64
Cc1ccc(OCc2nc(C#N)c(N3CCC(Cc4ccccc4)CC3)o2)cc1	0.6	-5.07
Cc1cccc(NC(=O)Nc2ccc(Br)cc2)n1	1.12	2.32
Cc1cc(NC(=O)CSc2nnc(N)s2)no1	1.05	1.37
O=C(NCCCN1CCN(c2ccccc2F)CC1)c1csc2c1CCCC2	0.974	-1
CCc1ccc(-c2nn(-c3ccccc3)cc2CO)cc1	0.875	-1.75
Cc1c(Cl)cccc1-n1c(CCC(=O)O)ccc1-c1cccs1	0.997	-0.0964
Cc1ccccc1CN1C(=O)c2ccccc2Sc2ccc(C(=O)NC3CCCCC3C)cc21 (stereo not drawn)	0.947	-2.05
Cc1ccc(-n2ncc3c(NCc4ccc5c(c4)OCO5)ncnc32)c(C)c1	0.976	-0.674
Cc1oc(-c2cccc(Cl)c2)nc1CN1CCCC(C(=O)NCc2cccs2)C1 (stereo not drawn)	0.828	-2.05
COc1ccc2nc(Nc3nc4c(c(=O)[nH]3)CCCC4)nc(C)c2c1	0.899	-0.114
Cc1cc(C)n2c(Nc3ccc(Cl)cc3)c(-c3ccsc3)nc2n1	0.997	-0.0765
SMILES	CBX7 inh	CBX7 inh z-score
CCC(=O)N1CCc2cc(Br)cc(S(=O)(=O)Nc3cc(C)ccc3OC)c21	1.03	1.44
COc1ccc2nc(NC(=O)c3c(-c4ccccc4Cl)noc3C)sc2c1	1.01	0.0891
COc1ccccc1CNC(=O)C(=O)NC(C)C(c1cccs1)N1CCN(c2ccccc2)CC1 (stereo not drawn)	0.782	-2.31
CN(c1ccccc1)S(=O)(=O)c1ccc(C(=O)Nc2c(C(N)=O)oc3ccccc23)cc1	0.939	-0.949
CCN1CCN(CCCNC(=O)c2cc(-c3ccc(OC)cc3)nc3ccc(C(C)C)cc23)CC1	1.15	0.169
Cc1c(Cl)cccc1Nc1nc(-c2ccccc2)nc2ccccc12	1.32	3.49
O=C1CCc2cc(S(=O)(=O)N3CCCC3C(=O)NCc3ccccc3Cl)ccc2N1 (stereo not drawn)	1.17	2.98
Cc1ccc(OCC(=O)Nc2cc(-c3nc4ncccc4o3)ccc2C)cc1C	0.959	-0.398
COc1ccc(OC)c(NC(=O)CCC(=O)Nc2ccc3nc(N4CCN(C)CC4)cc(C)c3c2)c1	0.99	-0.501
c1ccc(Nc2c(-c3ccsc3)nc3cnccn23)cc1	0.886	-1.35
CS(=O)(=O)CC[C@@H](C(=O)NCCc1ccccc1)N1Cc2ccccc2C1=O	1.18	3.29
Cc1noc(C(=O)N(C)c2ccccc2)c1Cl	1.07	2.39
Cc1ccccc1Cn1c(C(C)NC(=O)c2ccc(F)cc2)nc2ccccc21 (stereo not drawn)	0.926	-2.46
O=C(NCCN1CCOCC1)c1c[nH]c2ccc(S(=O)(=O)Nc3ccccc3F)cc2c1=O	0.96	-0.455
CCOC(=O)c1c(C)nc2n(Cc3ccccc3)c3ccccc3n12	0.944	-0.353
O=C1CC(N2CCCCC2)C(=O)N1c1cc(Cl)cc(Cl)c1 (stereo not drawn)	1.19	3.6
COc1ccccc1-n1cc(C(=O)NCC(=O)N2CCCC(C)C2)c2ccccc2c1=O (stereo not drawn)	0.972	-0.423
COCCNC(=O)c1cn(C)c(=O)c2cc(OC)c(OC)cc12	1.04	0.596
CC(C)OCCCNC(=O)Cc1cn(C)c2ccccc12	1.02	0.429
Cc1nccc2[nH]c(=O)c(C(=O)NCc3ccc4c(c3)OCO4)cc12	1.02	0.451
O=C(CN1CCN(Cc2ccc(Cl)cc2)C1=O)NCCc1ccccc1	1.05	0.695
Cc1ccc(Cn2nc(C)c(NC(=O)c3cc(-c4ccco4)on3)c2C)cc1	1.01	0.294
Cc1nn(C)c(C)c1S(=O)(=O)N(CC(=O)NCc1ccccc1Cl)c1ccc(C(C)C)cc1	1.05	0.721
O=C(Nc1ccc2nc3n(c(=O)c2c1)CCCCC3)c1cccc(C(F)(F)F)c1	0.984	-0.534
O=C(Nc1ccc2nc3n(c(=O)c2c1)CCC3)c1cccnc1	1.02	0.47

Retrieved by compound from above, 4 records:
SMILES	CBX7 inh	CBX7 inh z-score
CCC(=O)N1CCc2cc(Br)cc(S(=O)(=O)Nc3cc(C)ccc3OC)c21	1.03	1.44
O=C(NCCN1CCOCC1)c1c[nH]c2ccc(S(=O)(=O)Nc3ccccc3F)cc2c1=O	0.96	-0.455
O=C1CC(N2CCCCC2)C(=O)N1c1cc(Cl)cc(Cl)c1 (stereo not drawn)	1.19	3.6
Cc1ccc(Cn2nc(C)c(NC(=O)c3cc(-c4ccco4)on3)c2C)cc1	1.01	0.294

Remaining list, next part
SMILES	CBX7 inh	CBX7 inh z-score
COc1ccc(OCc2nc(-c3ccc(C)cc3)no2)cc1	1.32	0.379
O=C(c1cn(-c2ccc(F)cc2F)c(=O)c2ccccc12)N1CCCCC1	1.01	0.192
CC(C)C(=O)Nc1cccc(C(=O)Nc2nnc(Cc3ccc(Cl)cc3)s2)c1	0.878	-1.45
COc1cccc(C(=O)Nc2cc(-c3nc4cc(C)cc(C)c4o3)ccc2C)c1	1.04	1.83
COc1cccc(NS(=O)(=O)c2ccc3[nH]cc(C(=O)N4CCC5(CC4)OCCO5)c(=O)c3c2)c1	1.1	0.667
O=C(Nc1nc2c(s1)CCc1ccccc1-2)C(c1ccccc1)c1ccccc1	0.847	-2.76
CCOC(=O)c1c(CN2CCN(C)CC2)oc2ccc(OC)cc12	1.01	0.556
Cc1c(C(=O)NCCc2ccccc2)oc2ccc(S(=O)(=O)N3CCCC3)cc12	0.962	-0.179
Cc1ccc(OCCn2c(/C=C/c3ccccc3)nc3ccccc32)cc1	1.35	7.68
COc1ccc2cc(CCNS(=O)(=O)c3ccc(NC(C)=O)cc3)c(=O)[nH]c2c1	1.05	0.304
O=C(Nc1ccc(Cl)cc1)Nc1nnc(CC2=CCCCC2)s1	1.02	0.0542
Cc1cc(C)c(C#N)c(Nc2cccc3ccccc23)n1	1.06	2.49
Cc1ccc(-n2nc3c(c2NC(=O)c2ccc4c(c2)OCO4)CSC3)c(C)c1	1.12	1.99
O=C(Nc1cccc(F)c1)c1cc(-c2ccccc2)nc2ccccc12	0.966	-0.77
C#CC(C)(C)NS(=O)(=O)c1cc(-c2nnc(Nc3ccc(C)cc3)c3ccccc23)ccc1C	0.959	-0.193
Cc1ccc(NC(=O)c2cnn(-c3ccc(C)c(C)c3)c2C2CCNCC2)c(C)c1	0.923	-1.48
CC1(C)C(=O)N(Cc2ccccc2)c2ccccc2N1C(=O)c1ccc(Br)cc1	1.06	2.21
CC1=Nc2cc(C(=O)NCCCN3C(C)CCCC3C)ccc2Sc2ccc(Cl)cc21 (stereo not drawn)	1.29	3.48
O=C(NCCc1ccccc1)C(=O)Nc1ccc(Cl)c(C(F)(F)F)c1	1.07	2
CCOC(=O)c1c(NC(=O)c2ccccc2Cl)sc2c1CCN(C(=O)OCC)C2	1.12	1.26
CCCNC(=O)CC1C(=O)N(Cc2ccccc2)C(C)c2nc3ccccc3n21 (stereo not drawn)	0.954	-0.712
Cc1cc(N2CCCCC2)nc2ccc(NC(=O)C3CC3)cc12	1.12	3.02
CCOc1ccc(CCNC(=O)CCc2c(C)nc3cc(-c4ccccc4)nn3c2C)cc1OCC	0.964	-0.587
Cc1ccc(NC(=O)N(CCCN2CCOCC2)Cc2cccs2)cc1C	0.969	-0.0309
O=C(NCC1CCCO1)C1CCC(=O)N1CCc1ccccc1 (stereo not drawn)	1.07	2.57

Record cards, from the list above. Values in the order: CBX7 inh, CBX7 inh z-score
Profile of CCC(=O)NCCCc1nc2ccccc2n1Cc1ccccc1F → 1.19, 1.96
Profile of COc1ccc2cc(CCNS(=O)(=O)c3ccc(NC(C)=O)cc3)c(=O)[nH]c2c1 → 1.05, 0.304
Profile of COc1cccc(NS(=O)(=O)c2ccc3[nH]cc(C(=O)N4CCC5(CC4)OCCO5)c(=O)c3c2)c1 → 1.1, 0.667
Profile of Cc1ccc(C)c(Cn2c(CCNC(=O)Cc3ccccc3)nc3ccccc32)c1 → 1.05, 0.368
Profile of Cc1ccccc1Cn1c(C(C)NC(=O)c2ccc(F)cc2)nc2ccccc21 (stereo not drawn) → 0.926, -2.46

(list continues)
SMILES	CBX7 inh	CBX7 inh z-score
O=C(Nc1ccc(C(F)(F)F)cc1)c1cnc(N2CCN(c3ncccn3)CC2)c2ccccc12	0.876	-0.772
CC(C)(C)c1ccc(C(=O)Nc2nc(-c3ccc(Cl)cc3)cs2)cc1	1.04	1.55
COc1cc(OC)c(Nc2nc(Cc3ccccc3)nc3sc(C)c(C)c23)cc1Cl	0.976	-0.852
Cc1cccc2[nH]c(SCc3ccc(F)cc3Cl)nc12	1.05	2.71
O=C(NCC1CCCO1)c1ccc2c(c1)N(Cc1c(F)cccc1Cl)C(=O)CS2 (stereo not drawn)	0.783	-0.877
CC1=C(C(=O)Nc2cc(C)ccn2)C(c2ccc(Cl)cc2)C2=C(CCCC2=O)N1 (stereo not drawn)	1.01	0.0282
CCCc1ccc(-c2nc(C3CCC(C4CCC(CCC)CC4)CC3)no2)cc1 (stereo not drawn)	0.936	-1.2
CC1CCCC(Nc2c(-c3ccsc3)nc3ccc(Cl)cn23)C1C (stereo not drawn)	0.844	-0.212
COc1ccc(N2C(=O)c3ccccc3NC2c2ccc(N(C)C)cc2)cc1 (stereo not drawn)	1.06	1.23
O=C(Nc1ccccc1Br)c1ccccc1C(=O)c1ncc[nH]1	0.999	-0.0162
Clc1ccccc1CNc1ccc2nncn2n1	0.957	-1.19
c1ccc(Cn2c(NCc3ccc4c(c3)OCO4)nc3ccccc32)cc1	0.937	-1.86
COc1ccc(OC)c(-c2nc(Nc3ccccc3Cl)sc2CC(=O)O)c1	0.987	-0.203
N#Cc1c(NC(=O)c2cc(-c3cccc(O)c3)on2)sc2c1CCCC2	1	0.0888
COc1ccc(N2C(=O)CC(Cc3ccc(Cl)cc3)C2=O)cc1 (stereo not drawn)	1.2	1.49
CCN(CC)CCCNC(=O)c1c[nH]c2ccc(S(=O)(=O)N3CCC(C)CC3)cc2c1=O	1.22	3.33
CCCNC(=O)c1cc(=O)n(Cc2ccc(Cl)cc2)c2ccccc12	1.05	0.612
CCCCn1c(=N)n(CC(O)C(C)(C)C)c2ccccc21 (stereo not drawn)	0.948	-2.49
CCC(=O)N1CCc2cc(S(=O)(=O)NC(C(=O)Nc3cc(OC)cc(OC)c3)C(C)C)ccc21 (stereo not drawn)	0.987	-0.422
COc1ccc(C(=O)N2CC(=O)Nc3ccc(Cl)cc3C2c2ccc(F)cc2)cc1OC (stereo not drawn)	0.75	-2.39
Cc1cc(NC(=O)CSc2nnc(-c3ccccc3C)o2)no1	1.15	2.22
O=C(NCc1ccc(F)cc1)c1cnn(-c2ccccc2)c1-n1cccc1	1.04	1.43
COc1ccc(CC(=O)Nc2ccc3nc4n(c(=O)c3c2)CCCCC4)cc1	0.993	-0.23
O=C(Nc1ccc2c(c1)OCO2)c1nn2c(c1Cl)NC(c1cccs1)CC2C(F)(F)F (stereo not drawn)	1.07	0.9
Cc1ccc(CN2C(=O)CCC2C(=O)NCCc2ccc(Cl)cc2)cc1 (stereo not drawn)	1.01	0.548
SMILES	CBX7 inh	CBX7 inh z-score
COc1ccc(-n2cnc3cc(Nc4nnc(C)c5ccccc45)ccc32)cc1	1.3&0.824	2.18&-1.68
O=C(C1CCC(Cn2c(=O)[nH]c3ccsc3c2=O)CC1)N1CCN(c2ccc(F)cc2)CC1 (stereo not drawn)	1.02	0.112
CCC(C)NC(=O)Cn1nc(Cc2cccnc2)c2ccccc2c1=O (stereo not drawn)	1.14	2.11
C=C(C)Cn1c(COc2ccc(C(C)(C)C)cc2)nc2ccccc21	1.12	2.6
COc1ccc(C2C(C(=O)Nc3ccc(F)cc3)c3ccccc3C(=O)N2C)cc1 (stereo not drawn)	1.14	1.41
CCOc1ccc(NC(=O)c2nn(-c3ccc(OCC)cc3)c(=O)c3ccccc23)cc1	0.945	-1.56
O=C1CC(N2CCN(C(c3ccccc3)c3ccccc3)CC2)C(=O)N1c1ccc(Cl)cc1 (stereo not drawn)	0.818	-2.88
COc1ccc(/C=C/c2nc(=O)c(-c3ccccc3)c(C)n2-c2ccccc2)cc1	1.04	1.3
O=C(Nc1ccc(-c2nc3ncccc3o2)cc1)c1cccnc1	1.09	0.988
Cc1c(C(=O)N2CCOCC2)sc2ncnc(N3CCc4ccccc4C3)c12	1.12	1.58
O=C(NCCCn1ccnc1)c1cc(-c2ccc3c(c2)OCO3)on1	0.934	-1.45
Cc1ccn2c(NC(=O)CC(C)(C)C)c(-c3ccccc3)nc2c1	1	0.105
Cc1ccc(C)c(CN2C(=O)c3ccccc3Sc3ccc(C(=O)NCc4cccnc4)cc32)c1	0.938	-2.91
Cc1ccc2cc(CCNC(=O)c3cccs3)c(=O)[nH]c2c1C	1.15	3.01
COc1ccc(-n2ccnc2SCC(=O)Nc2cccc(C)c2C)cc1	0.93	-1.07

Compound activity as filed in PubChem.
